From PubChem BioAssay
Cruzain inh Det: qHTS Assay for Promiscuous and Specific Inhibitors of Cruzain (with detergent) | Cruzipain (Trypanosoma cruzi), P25779 | purified cruzain, Z-FR-AMC fluorescence, 0.01% Triton | Potency, µM, inactives show max response, negative = inhibition, usual class: inhibitors | 0.43% of 200,000 active | AID 1478, 2009; active means well fitted curve in the direction sought with a large enough effect; inconclusive means small, poorly fitted or top-dose-only effect, or another doubt; inactive means no such curve, though single readings can be large; an effect the other way counts as inactive or inconclusive;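 further: plate controls were neutral wells for no effect and buffer without enzyme for full effect; nearly all actives have a fitted effect of over 40% in size; top concentration of the series not given in the record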
Target sequence (P25779 123-467 limits assumed): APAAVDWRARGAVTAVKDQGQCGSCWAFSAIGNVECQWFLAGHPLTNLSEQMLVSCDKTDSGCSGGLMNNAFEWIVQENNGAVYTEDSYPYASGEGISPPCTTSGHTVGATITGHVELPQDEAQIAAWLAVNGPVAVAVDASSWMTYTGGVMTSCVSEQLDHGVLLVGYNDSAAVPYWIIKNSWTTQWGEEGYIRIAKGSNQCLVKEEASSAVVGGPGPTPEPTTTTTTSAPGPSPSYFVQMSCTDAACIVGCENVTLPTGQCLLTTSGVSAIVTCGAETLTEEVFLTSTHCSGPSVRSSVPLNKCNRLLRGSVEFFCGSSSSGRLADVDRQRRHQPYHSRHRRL
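In this qHTS format, compounds are incubated with 1.5 nM cruzain for 15 min at room temperature before 2 uM Z-FR-AMC is added. Release of AMC is followed at 360/450 nm, and progress is taken as the 60 s fluorescence difference.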
NS1 inh: qHTS Assay for Inhibitors of Influenza NS1 Protein Function | S. cerevisiae slowed by influenza A NS1, growth recovery by OD600 | Potency, µM (top dose mostly 46.1 µM), without a hit: at the top dose activity, positive = more growth | 0.4% of 270,000 active | AID 2326, 2010; further: actives are rising curves; nearly all actives have a fitted effect of over 50% in size
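Compounds were scored for reversing the slow growth caused by influenza A NS1 in S. cerevisiae, measured by optical density at 600 nm. Assay medium contained 2% galactose at pH 6.0; NS1-free yeast of the same strain were the positive control.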
MARV entry inh: qHTS for inhibitors of binding or entry into cells for Marburg Virus; Marburg virus pseudotyped entry inhibition, cell reporter; control for the full effect not named in the record; about a third of the inactives were read at about 46 µM; Potency, µM (titrated, usually from 37.8 µM), inactives show at the top dose activity change, negative = inhibition, most hits filed as inhibitors; 1.8% of 300,000 active; active = well fitted inhibition curve with a large enough effect; inconclusive = small, poorly fitted or top-dose-only effect, or effect the other way; inactive = flat fitted curve, though single readings scatter; tested in HEK293 cells; about a fifth of its hits are not listed in these tables; further: on the % scale 0 is the no-effect control and ±100 the full control effect; luciferase read-out
SARS PLP yeast: qHTS of Yeast-based Assay for SARS-CoV PLP; 0.19% of 330,000 active; S. cerevisiae expressing SARS-CoV PLpro, growth rescue; control for the full effect not named in the record; Potency, µM (series often up to 32.9 µM), for the others: top-dose activity, positive = growth rescue; AID 485353, 2010; further: 0% is about no effect; nearly all actives have a fitted effect of over 55% in size; growth read by luminescence after 48 h
Cruzain inh noDet: qHTS Assay for Promiscuous and Specific Inhibitors of Cruzain (without detergent). purified cruzain, Z-FR-AMC fluorescence, no detergent. Potency, µM, for the others: max response, negative = inhibition, actives largely listed as inhibitors. 2.3% of 200,000 active. AID 1476, 2009; active means well fitted curve in the direction sought with a large enough effect; inconclusive means small, poorly fitted or top-dose-only effect, or another doubt; inactive means no such curve, though single readings can be large; an effect the other way counts as inactive or inconclusive;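 further: plate controls were enzyme without inhibitor for no effect and buffer without enzyme for full effect; nearly all actives have a fitted effect of over 40% in size; top concentration of the series not given in the record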
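Purified cruzain at 1.5 nM, pre-incubated 15 min with compound at room temperature in 100 mM sodium acetate pH 5.5, 5 mM DTT, 0.00005% Triton X-100. Reaction started with 2 uM Z-FR-AMC; AMC fluorescence increase over 60 s gives rate.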
RE007 growth inh: qHTS Assay for Inhibitors of the HIV-1 protein Vpr; Potency, µM (highest dose often 92.2 µM), for inactives: top-dose activity change, negative = less growth; S. pombe RE007 Vpr strain, BacTiter-Glo ATP luminescence, 24 h; control for the full effect not named in the record; 0.21% of 360,000 active; active = well fitted falling curve with a large enough effect; inconclusive = small, poorly fitted or top-dose-only effect; inactive = no such curve, though single readings can be large or run the other way;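 further: on the % scale 0 is the no-effect control and ±100 the full control effect; nearly all actives have a fitted effect of over 50% in size; the assay follows cell death caused by Vpr and the record does not say whether a fall means rescue or toxicity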
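Fission yeast RE007 carrying one integrated HIV-1 vpr copy, seeded at OD 0.01 in PMG+AL medium with 23 nL pinned compound. Grown 24 h at 30 degrees; viability read by BacTiter-Glo luminescence after 5 min.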
Lassa entry inh: qHTS for Inhibitors of binding or entry into cells for Lassa Virus; Lassa virus pseudotype entry inhibition, cell reporter; control for the full effect not named in the record; Potency, µM (doses to about 37.9 µM), for inactives: at the top dose activity change, negative = inhibition, hits mostly inhibitors; 1.2% of 300,000 active; AID 540256, 2011; active means well fitted inhibition curve with a large enough effect; inconclusive means small, poorly fitted or top-dose-only effect, or effect the other way; inactive means flat fitted curve, though single readings scatter; tested in HEK293 cells; further: on the % scale 0 is the no-effect control and ±100 the full control effect; nearly all actives have a fitted effect of over 50% in size; luciferase read-out
StopGo reporter: High Throughput Screening for Foot and Mouth Disease Virus Antivirals; human cells with a luciferase reporter of 2A StopGo recoding; control for the full effect not named in the record; Potency, µM (highest dose often 57.9 µM), without a hit: top-dose signal change, negative = less light; 1.2% of 410,000 active; AID 1159524, 2015; active = well fitted falling curve with a large enough effect; inconclusive = small, poorly fitted or top-dose-only effect; inactive = no such curve, though single readings can be large or run the other way; tested in HEK293T cells; further: on the % scale 0 is the no-effect control and ±100 the full control effect; nearly all actives have a fitted effect of over 45% in size; luciferase light after 4 h
Numbers without * were called inactive; ? = inconclusive; . = no result given; [ ] = remark or other dose. Unless noted, the call rests on the fitted dose curve; in most records, active means well fitted rising curve with a large enough effect; inconclusive means small, poorly fitted or top-dose-only effect; inactive means no such curve, though single readings can be large or run the other way. Potency means the concentration at half of the fitted maximal effect.

Values run as follows: Cruzain inh Det	NS1 inh	MARV entry inh	SARS PLP yeast	Cruzain inh noDet	RE007 growth inh	Lassa entry inh	StopGo reporter
> CN(CCc1ccccn1)C(=O)CCC1CCCN(C(=O)c2ccc3c(c2)OCCO3)C1 (stereo unspecified)
 : .	1.0%	11.3%[46.1 µM]	0.8%	.	6.9%	10.4%[46.1 µM]	22.3%
> O=S(=O)(NCCSCc1c(Cl)cccc1Cl)c1ccc2c(c1)OCCO2
 : 2.8%	-38.3%	-25.8%	-19.8%	4.9%	5.6%	-6.5%	11.5%
> O=Cc1ccnc(-c2ccc(OC(=O)c3ccco3)cc2)n1
 : .	.	?	-4.7%	.	-13.3%	-18.8%	-4.5%
> Cc1ccc(NC(=S)NCc2ccc(Cl)cc2)c(OC(F)F)c1
 : .	-37.3%	-3.7%	-8.3%	.	3.8%	11.7%	-9.5%
> O=C(COC(=O)CCCc1nc2ccccc2s1)NC(=O)NCc1ccco1
 : .	.	?	-0.7%	.	15.9%	-25.6%[46.1 µM]	-5.9%
> Cc1ccc(CSCCNC(=O)CN(c2cccc([N+](=O)[O-])c2)S(C)(=O)=O)cc1
 : .	-3.8%	.	-2.2%	.	2.8%	.	-7.5%
> CC1CCCCN1C(=O)c1ccccc1NC(=O)c1ccco1 (stereo unspecified)
 : 2.5%	-3.2%	29.8%	-3.3%	-3.5%	5.4%	-2.0%	7.7%
> Cc1nc2ccccc2c(=O)n1NC(=O)c1ccccc1Br
 : .	-3.8%	?	-0.3%	.	99.6%	20.2%	-5.7%
> CCc1ccc(OCCOCC(O)CNC(C)(C)C)cc1 (stereo unspecified)
 : 1.6%	13.8%	-4.9%	3.3%	0.5%	-2.3%	-9.9%	-16.8%
> CCOC(=O)C(=O)NNc1ccccc1OC
 : .	1.5%	-13.0%	0.6%	.	58.1%	?	-1.3%
> O=C1c2oc3ccc(Cl)cc3c(=O)c2C(c2ccccn2)N1CCCN1CCOCC1 (stereo unspecified)
 : -4.3%	?	-1.1%	6.3%	-3.7%	-11.2%	.	-23.3%
> Cc1cnc(C)c(N2CCN(Cc3nc(-c4ccc(C)o4)oc3C)CC2)n1
 : .	5.0%	-14.7%[46.1 µM]	1.5%	.	-4.8%	8.4%	-5.2%
> CC(=O)c1c(C)nc(C)nc1NC(=O)Cc1ccccc1
 : 0.1%	-7.6%	11.9%	-8.3%	5.8%	7.7%	-1.6%	12.0%
> O=C(NC(=S)Nc1nc2ccc(F)cc2s1)c1ccco1
 : .	.	?	2.7%	.	-9.6%	-1.1%[46.1 µM]	0.0%
> NS(=O)(=O)c1ccc(NC(=O)COC(=O)CNC(=O)C23CC4CC(CC(C4)C2)C3)cc1
 : .	-1.3%	.	1.2%	.	9.2%	.	-2.0%
> CCCn1c(N)c(C(=O)CN(C)CC(=O)Nc2ccc(C)cc2)c(=O)[nH]c1=O
 : .	.	?	-2.3%	.	-9.9%	?	-8.6%
> CN1C(=O)S/C(=C/c2cccnc2)C1=O
 : 1.6%	-0.2%	?	-7.2%	6.1%	-6.8%	1.7%	-12.7%
> COc1ccc(CNC(=O)CN(c2cc(C(F)(F)F)ccc2Cl)S(C)(=O)=O)cc1
 : -4.9%	.	?	.	-1.7%	.	-10.0%[46.1 µM]	11.1%
> Cc1ccc2nc(N(CCCN(C)C)C(=O)c3cc(-c4cccs4)nc4ccccc34)sc2c1
 : .	-38.9%	.	-1.7%	.	22.1%	.	-17.9%
> O=C(COc1ccccc1Cl)N1CCN(c2ncccn2)CC1
 : -0.5%	-2.5%	5.5%	3.5%	12.7%	0.7%	2.3%	-16.2%
> COc1ccc(N2CC(NC(=O)Nc3ccccc3)CC2=O)cc1 (stereo unspecified)
 : .	.	13.3%[46.1 µM]	1.0%	.	-4.4%	20.5%[46.1 µM]	-5.5%
> CCOc1ccc(C(=O)NCCC(=O)N2CCC3(CC2)NCCc2[nH]cnc23)cc1
 : .	-3.4%	-20.1%[46.1 µM]	-1.7%	.	1.5%	25.7%[46.1 µM]	-8.0%
> CSCCC(NC(=O)COc1ccccc1)C(=O)N1CCN(c2cccc(C(F)(F)F)c2)CC1 (stereo unspecified)
 : .	.	?	.	.	9.8%	?	-17.1%
> O=C(Nc1ccc(Cl)cc1F)c1ccc(COc2c(F)c(F)c(F)c(F)c2F)o1
 : 20µM*	-1.2%	-2.7%	-7.2%	?	-3.0%	?	-15.4%
> Fc1cccc(/C=N/Nc2ccccn2)c1
 : .	.	5.7%[46.1 µM]	-0.3%	.	-14.7%	17.6%	57.5%[activator]
> O=C(N1CCOCC1)N1CCN(C(=O)N(c2ccccc2)c2ccccc2)CC1
 : 4.0%	-8.8%	-0.9%	6.6%	-3.2%	3.1%	-1.5%	.
> O=C(NCCCn1ccnc1)c1ccc(Cl)s1
 : .	3.7%	.	-0.6%	.	5.9%	.	-8.0%
> CCC(CC)C(=O)Nc1nnc(S(=O)(=O)N(CC)c2ccc(OC)cc2)s1
 : .	3.3%	?	-1.8%	.	-2.1%	-23.9%	-11.8%
> Fc1ccccc1/C=C1\CCCC2=C1NC(=S)NC2c1ccccc1F (stereo unspecified)
 : .	16.2%	?	1.1%	.	4.3%	?	?
> COc1cc(C2NC(=O)NC(c3ccccc3)=C2C(C)=O)c(Cl)cc1OCC(=O)O (stereo unspecified)
 : .	.	?	-5.9%	.	-24.5%	-1.1%	-3.1%
> Cc1cc(C)n2ncc(C(=O)NCCc3ccccc3)c2n1
 : -3.2%	-5.8%	1.0%	.	-4.3%	-1.8%	?	37.7%[activator]
> CCOc1cccc(C(=O)Nc2nnc(S(=O)(=O)N(C)c3ccc(C)cc3)s2)c1
 : -2.6%	.	.	.	-15.4%	.	6.0%[46.1 µM]	-21.2%
> Cc1cc(C)nc(Nc2cccc(Cl)c2)n1
 : .	-19.9%	.	-10.1%	.	-20.1%	.	26.6%
> Cc1cccc(-c2noc(-c3ccccc3OCC(=O)Nc3ccccc3[N+](=O)[O-])n2)c1
 : -4.0%	.	-25.0%[46.1 µM]	.	-3.6%	.	14.5%[46.1 µM]	-6.8%
> Cc1ccc(S(=O)(=O)Nc2ccc(S(=O)(=O)Nc3ncccn3)cc2)cc1
 : -4.3%	-6.6%	4.7%	-1.9%	9.0%	1.0%	-22.9%	9.1%
> CCc1cccc(CC)c1NC(=O)CSc1nnc(C2CC2)n1N
 : .	.	-9.9%	0.7%	.	-22.6%	6.9%	-16.3%
> COc1cc(/C=C2\SC(=S)N(Nc3ccccc3)C2=O)ccc1O
 : -11.9%	-8.9%	?	-12.2%	-16.5%	3.4%	?	34.7%[activator]
> Cc1ccc(-c2cc(NC(=O)CSc3n[nH]c(N)n3)n(-c3ccccc3)n2)cc1
 : -2.8%	-0.3%	-29.2%[46.1 µM]	1.1%	?	17.3%	10.2%	32.4%[activator]
> CCC(=O)NC(c1ccccc1)c1c(O)ccc2ccccc12 (stereo unspecified)
 : .	-2.5%	.	-4.1%	.	-7.4%	.	-25.5%
> O=C(Nc1cccc(NC(=O)c2ccc(F)cc2)c1)c1ccc(F)cc1
 : .	7.0%	.	-1.4%	.	-7.1%	.	0.0%
> O=C(CSc1nncc2ccccc12)Nc1cccc(O)c1
 : .	-3.9%	-1.2%[46.1 µM]	21.5%	.	3.3%	3.1%	-19.2%
> CCc1ccc(-c2nc(CN3CCCC(C(=O)NCc4ccccc4Cl)C3)c(C)o2)cc1 (stereo unspecified)
 : 0.4%	.	5.4%[46.1 µM]	.	10.0%	.	?	?
> O=C(CCc1ccccc1)NCC(=O)N/N=C/c1ccc(O)cc1O
 : .	7.5%	.	1.3%	.	-8.4%	.	-6.0%
> CCOC(=O)c1c(C)[nH]c(C)c1S(=O)(=O)N(C)CC(=O)N1CCN(c2ccc(Cl)cc2)CC1
 : -2.9%	.	.	.	?	.	-24.2%[46.1 µM]	-3.0%
> Cc1oc(CC(C)C)cc1C(=O)Nc1ccc(C(=O)O)cc1
 : 1.9%	-133.7%	16.3%	?	10.1%	1.2%	2.2%	48.0%[activator]
> COc1ccc(C(=O)N2CCCC2)cc1S(=O)(=O)N1CCC(C)CC1
 : 3.9%	-2.9%	9.3%	-2.3%	8.5%	-6.3%	14.2%	12.1%
> Cc1cc(C)n(-c2nnc(NC34CC5CC(CC(C5)C3)C4)nn2)n1
 : -4.9%	3.0%	?	-31.1%	12.8%	-4.1%	?	16.6%
> CCC(Oc1ccccc1F)C(=O)NCCCn1ccnc1 (stereo unspecified)
 : .	-1.9%	0.3%[46.1 µM]	3.6%	.	5.5%	-0.9%[46.1 µM]	-2.2%
> N=c1c2ccccc2nc2n1CCCCCCCCCCC2
 : .	.	?	.	.	-9.5%	?	?
> CCN(C(=O)CSc1nc(C2CC2)n(-c2ccccc2)n1)C1CCS(=O)(=O)C1 (stereo unspecified)
 : .	.	18.6%	-3.3%	.	-12.4%	18.3%	-14.6%
> Cn1c(=O)c2c(ncn2CC(=O)Nc2ccccc2)n(C)c1=O
 : 0.9%	4.2%	1.1%	1.9%	3.0%	0.2%	3.0%	-17.5%
> COc1ccccc1CN1CCN(Cc2ccc3ccccc3c2)CC1
 : .	-4.3%	.	1.0%	.	-6.3%	.	-11.1%
> COc1cccc(-n2c(CN3CCOCC3)nc3ccc([N+](=O)[O-])cc3c2=O)c1
 : .	4.3%	.	1.6%	.	3.8%	.	-14.9%
> CSc1nc2sc3c(c2c(=O)n1C)CCCC3
 : 0.0%	-12.3%	11.9%	0.9%	1.3%	-19.1%	1.6%	.
> COc1ccccc1NCCC(=O)OCC(=O)NC1CCCCCC1
 : 2.7%	1.3%	?	4.3%	8.5%	-7.5%	3.5%	-6.5%
> COc1ccc(C2=NN(C(=O)c3ccco3)C(c3cc4ccccc4nc3Cl)C2)cc1 (stereo unspecified)
 : .	?	.	-2.1%	.	-0.8%	.	-17.2%
